# CSC inhib: blocks cancer stem cells; hit rate 1.1% among 300,000; cancer stem cell-like cells viability, luminescence; inhibition, % at 7.5 µM;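 active = mean at 75% or more and at least half the replicates too; tested in HMLE shEcad cells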;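 note: 0% = median of negative and 100% = median of positive control wells; the first replicate is given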
# PABP polyA inh: blocks human PABP binding to poly(A) RNA. P11940. fluorescence polarization. inhibition, % at 35 µM. hit rate 1% among 290,000. AID 2014;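 active = 50% or more with normal probe brightness, or confirmed in later tests; about a fifth of its hits are not listed in these tables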;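 note: calls also rest on retests at 20 µM and on dose response follow-up; controls were probe without protein and protein plus probe with vehicle; some compounds called inactive have numbers as strong as hits; many hits fall short of the cut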
# Target sequence (P11940 whole entry, looked up): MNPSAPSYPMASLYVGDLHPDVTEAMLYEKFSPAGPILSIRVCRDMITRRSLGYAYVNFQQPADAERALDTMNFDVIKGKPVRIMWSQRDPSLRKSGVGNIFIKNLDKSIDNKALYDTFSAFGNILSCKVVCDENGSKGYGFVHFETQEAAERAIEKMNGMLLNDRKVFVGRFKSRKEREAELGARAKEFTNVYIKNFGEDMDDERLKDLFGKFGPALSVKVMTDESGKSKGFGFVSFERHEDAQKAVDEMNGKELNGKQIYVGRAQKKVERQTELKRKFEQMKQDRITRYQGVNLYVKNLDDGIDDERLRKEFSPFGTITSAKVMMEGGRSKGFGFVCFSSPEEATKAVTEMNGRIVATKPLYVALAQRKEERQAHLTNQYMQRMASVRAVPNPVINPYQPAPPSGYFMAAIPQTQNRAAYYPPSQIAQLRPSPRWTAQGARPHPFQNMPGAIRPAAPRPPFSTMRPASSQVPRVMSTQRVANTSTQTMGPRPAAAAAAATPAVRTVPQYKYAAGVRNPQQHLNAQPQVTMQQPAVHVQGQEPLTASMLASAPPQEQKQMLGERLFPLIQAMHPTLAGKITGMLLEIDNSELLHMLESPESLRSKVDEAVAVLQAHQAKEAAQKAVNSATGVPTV
# Rce1 inh: yeast Ras-converting enzyme inhibition | Q03530 | yeast membranes, quenched prenylated peptide cleavage fluorescence | calls only | hit rate 0.27% among 290,000 | AID 2563;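 active = fall in fluorescence gain of 50% or more versus controls, with final raw signal at or below 3038400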;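 note: plate controls were neutral control wells for no effect and wells lacking membranes for full effect; tested at 10 µM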
# MT1-MMP act inh: blocks activation of human MT1-MMP. P50281. HT1080 RFP-PRO-GFP cells, GFP/RFP ratio fluorescence, overnight; percent of plate control window, DMSO zero. GFP/RFP ratio change, % at 20 µM. hit rate 0.061% among 360,000. AID 651647;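 active = GFP/RFP ratio change of at least 30% with cell ATP level not reduced by more than half and red fluorescence within 50% of control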; note: strong numbers were not always called active
#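 system = RFP-PRO-GFP reporter HT1080 cells | dosing = 20 µM single dose, 1% DMSO | timing = overnight cell settling, then overnight compound exposure, 37 °C, 5% CO2 | read-out basis = GFP/RFP fluorescence ratio | controls = DMSO and RFP-L50D-GFP cell wells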
# Env fusion inh: blocks HIV Env-driven cell-cell fusion; HeLa-JRFL Env/CEM21 cell fusion, luciferase; inhibition, % at 12.3 µM; hit rate 1.1% among 360,000; AID 651610;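 active = mean replicate inhibition score of at least 50 and every replicate individually at or above 50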;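 note: 0% = plate neutral controls and 100% = maraviroc near 300 nM; one replicate is shown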
# Yeast UUG start: yeast start codon fidelity modulation | activity score, % at 18.7 µM | hit rate 0.13% among 350,000 | S. cerevisiae UUG-firefly luciferase reporter, luminescence/redox ratio;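 active = replicate mean at a twofold rise or more, about +100% in these data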;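 note: firefly luciferase made from a UUG start codon reports start codon fidelity; reporter light over untreated wells divided by growth signal over untreated wells; some hits fall short of that in this replicate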
# eIF4H FP inh: inhibitors of RNA binding by human eIF4H; Q15056; eIF4H fluorescence polarization binding assay; inhibition, % at 35 µM; hit rate 0.94% among 290,000;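 active = 50% or more with normal probe brightness, or confirmed in later tests; about a fifth of its hits are not listed in these tables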;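 note: calls also rest on retests at 20 µM and on dose response follow-up; 0% = protein and probe with vehicle and 100% = probe without protein; strong numbers were not always called active; many hits fall short of the cut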
# eIF4H FP inh retest: also measured in eIF4H FP inh; calls as there; inhibition, %; compound at 20 µM; confirmation average;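 mean of two retest wells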
# PABP polyA inh retest: also measured in PABP polyA inh; calls as there; inhibition, %; compound at 20 µM; confirmation repeats;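 mean of two retest wells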
# MT1-MMP act inh RFP: second read-out of MT1-MMP act inh, no call of its own (marks repeat the call); RFP signal change, %; measured here: RFP expression control read;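 0 = vehicle wells; hits needed this value within 50% of zero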
# Active calls of the source: *; i = inactive; . = no result given.
SMILES,CSC inhib,PABP polyA inh,Rce1 inh,MT1-MMP act inh,MT1-MMP act inh RFP,Env fusion inh,Yeast UUG start,eIF4H FP inh,others
CC1(C)CN(c2cccc(-c3ccnc4ncnn34)c2)C1=O,.,-5,i,5,7,-2,-14,2,
O=C(COc1ccc2ccc(=O)oc2c1)NCCCN1CCCC1=O,2,-2,i,1,2,-13,2,-6,
Cc1c(C#N)c2ccccc2n1CC(=O)N1CCc2ccccc2C1,.,-4,i,5,-1,13,1,-1,
O=c1[nH]c(SCc2cccc(F)c2)nc2c1CCCC2,20,2,i,5,3,-17,-7,-3,
CCCCn1c(SCC(=O)N2CCOCC2)nnc1-c1cccs1,11,-3,i,-2,-1,.,.,-9,
C[C@@]12C(=O)N(Cc3ccco3)CC(=O)N1[C@H]1c3ccccc3OC[C@@H]1[C@@H]2c1ccccc1,-8,.,.,-3,0,84*,-20,.,
O=C(CCN1C(=O)/C(=C\c2cccs2)SC1=S)Nc1nccs1,5,-11,i,-16,7,7,.,0,
Cc1ccsc1C(=O)OCC(=O)NCCC1=CCCCC1,.,4,i,4,6,-6,.,-6,
Cc1ccc2cc(C#N)c(NCCNC(=O)C3CCC3)nc2c1C,3,-2,i,-1,-7,106*,-6,-8,
COCCCn1c(=O)/c(=C\c2ccccc2OC(F)F)s/c1=C(/C#N)C(=O)N1CCOCC1,-18,5,i,-6,-4,-3,.,-9,
O=C(c1cccs1)C1CCCN(Cc2nc(Cc3ccccc3F)no2)C1 (stereo unspecified),-9,-4,i,5,3,5,.,-6,
C=CC[C@H](CC(=O)N(CCO)Cc1ccccc1)C(=O)N[C@@H](COC(=O)[C@H](CC=C)CC(=O)OC(C)(C)C)Cc1c[nH]c2ccccc12,0,.,.,-12,-23,-43,5,.,
CCN(CC)C(=O)CNc1ccc(C(F)(F)F)cc1[N+](=O)[O-],-18,3,i,0,1,16,-10,84,eIF4H FP inh retest=-17;PABP polyA inh retest=5
O=S(=O)(c1ccccc1)c1cnn2c(C(F)(F)F)cc(-c3ccccc3)nc12,1,0,i,-2,2,-137,3,-9,
O=C(CC(=O)c1cccs1)c1ccncc1,.,.,.,-6,-1,-29,-27,.,
CCC(C(=O)NCCN1CCOCC1)n1nc(C)n2c(cc3sccc32)c1=O (stereo unspecified),-2,-5,i,0,3,7,3,-13,
Cc1cc(C(=O)Nc2ccon2)ccc1[N+](=O)[O-],5,.,i,2,0,-9,-8,.,
O=C1CCC(c2ccccc2)N1c1ccccc1 (stereo unspecified),.,.,.,1,1,6,-11,.,
CCOc1ccccc1NC(=O)C(OC(=O)c1ccccc1NS(=O)(=O)c1cccs1)c1ccccc1 (stereo unspecified),-5,-12,i,4,3,12,.,-1,
COCCCN1C(=O)C(CC(=O)NCc2cccs2)CC(C(=O)N(C(C)C)C(C)C)=C1C (stereo unspecified),.,.,.,0,2,-21,-3,.,
COc1cc(/C=C/C(=O)N2CCc3ccccc3C2)cc(OC)c1OC,-15,3,i,3,-1,16,5,-12,
CNC(=O)CSc1nc2ccccc2c(=O)n1CCc1ccccc1,66,-8,i,5,5,2,-20,-6,
CC(C)CNC(=S)NC1CC2CCCC(C1)N2C1CCCCC1 (stereo unspecified),4,7,i,-2,1,11,.,-8,
Cc1ccc(S(=O)(=O)N2CCOCC2)cc1C(=O)OCC(=O)NCc1ccc2c(c1)OCO2,-3,.,.,2,3,-5,-12,.,
O=C(O)c1cc(-c2ccccc2)n(-c2ccccc2)n1,.,9,i,10,13,-12,-15,2,
Clc1ccccc1N1CCN(c2ncnc3nc[nH]c23)CC1,19,0,i,2,1,-3,-12,-4,
Cc1ccc(NC(=O)OCC(F)(F)C(F)F)cc1NC(=O)OCC(F)(F)C(F)F,12,-2,i,0,-5,-2,-4,1,
CSc1ccccc1C(=O)N1CCN(c2ncccn2)CC1,.,3,i,-2,-1,-8,.,-9,
Oc1ccc(Cl)cc1CNc1cnc2ccccc2c1,59,-4,i,1,-7,16,-3,-5,
CCCC1NC(=O)c2cc3ccccc3cc2-n2c1nc1cc(Cl)ccc1c2=O (stereo unspecified),.,.,.,-5,-23,-42,-7,.,

# Reprinted from the entries so far (two entries):
SMILES,CSC inhib,PABP polyA inh,Rce1 inh,MT1-MMP act inh,MT1-MMP act inh RFP,Env fusion inh,Yeast UUG start,eIF4H FP inh,others
CCOc1ccccc1NC(=O)C(OC(=O)c1ccccc1NS(=O)(=O)c1cccs1)c1ccccc1 (stereo unspecified),-5,-12,i,4,3,12,.,-1,
COCCCN1C(=O)C(CC(=O)NCc2cccs2)CC(C(=O)N(C(C)C)C(C)C)=C1C (stereo unspecified),.,.,.,0,2,-21,-3,.,

# The results go on:
SMILES,CSC inhib,PABP polyA inh,Rce1 inh,MT1-MMP act inh,MT1-MMP act inh RFP,Env fusion inh,Yeast UUG start,eIF4H FP inh,others
COc1cc(CN2CCN(Cc3ccc(C(F)(F)F)cc3)CC2)cc(OC)c1OC,10,6,i,7,-17,-12,3,9,
O=C(COc1nc2ccccc2nc1N1CCOCC1)Nc1cccc(S(=O)(=O)N2CCCCC2)c1,-4,3,i,2,-5,.,-12,4,
Cc1c(C(=O)C(=O)NCc2ccco2)c2ccccc2n1C,-4,-11,i,-4,1,-9,.,1,
COC(=O)C1CC2=C(CCCC2=O)N(Cc2ccccc2)C1=O (stereo unspecified),.,.,.,3,5,28,-10,.,
Cc1ccc(OCC(=O)N/N=C/c2cccnc2)cc1,9,-4,i,2,4,-6,-7,-2,
COc1ccc(NC(=O)c2cn(C)c(=O)c3cc(OC)c(OC)cc23)c(OC)c1,10,-3,i,4,3,15,-8,6,
CC(C)(CN1CCCCC1)NS(=O)(=O)c1ccc(Cl)cc1,32,5,i,-2,-3,.,-2,3,
COc1ccc(-c2nn(-c3ccccc3)cc2/C=C\C(=O)Nc2ccc(C(=O)O)cc2)cc1,-1,45,.,6,-2,-18,-8,12,
Cc1ccc(C)c(C(=O)COC(=O)CNS(=O)(=O)c2ccccc2)c1,2,25,i,2,2,1,-24,16,
Cc1noc(C)c1CC(=O)N1CCCC(C(=O)c2ccc(C(C)(C)C)cc2)C1 (stereo unspecified),4,-10,i,0,-8,0,-2,-5,
FC(F)(F)c1ccc(/C=N/NC(=S)NC2CCCCC2)cc1,41,0,i,0,-3,8,.,5,
Cc1ccc(Cl)cc1N(CC(=O)Nc1cccc(N(C)S(C)(=O)=O)c1)S(C)(=O)=O,11,3,i,-8,-3,-4,.,2,
Cc1c(Br)c(O)c(Br)c2sc(=O)oc12,66,35,.,-1,-2,5,.,41,
CC(=O)Nc1ccc(S(=O)(=O)Nc2ccc(Nc3ccccc3)cc2)cc1,-3,11,i,3,-2,-13,-4,3,
COc1ccc2c(c1)NC(c1cc(Cl)cc(Cl)c1O)c1cccn1-2 (stereo unspecified),.,18,.,-4,1,-24,.,12,

# By substructure, those above with a COOH group
SMILES,CSC inhib,PABP polyA inh,Rce1 inh,MT1-MMP act inh,MT1-MMP act inh RFP,Env fusion inh,Yeast UUG start,eIF4H FP inh,others
O=C(O)c1cc(-c2ccccc2)n(-c2ccccc2)n1,.,9,i,10,13,-12,-15,2,
COc1ccc(-c2nn(-c3ccccc3)cc2/C=C\C(=O)Nc2ccc(C(=O)O)cc2)cc1,-1,45,.,6,-2,-18,-8,12,

# Next section:
SMILES,CSC inhib,PABP polyA inh,Rce1 inh,MT1-MMP act inh,MT1-MMP act inh RFP,Env fusion inh,Yeast UUG start,eIF4H FP inh,others
CCc1nnc(SCC(=O)N2CCCC(N3CCN(c4ccccc4C)CC3)C2)o1 (stereo unspecified),-3,-5,i,0,0,14,7,5,
COc1cccc(C(=O)NCc2ccc3c(c2)OCO3)c1OC,-13,-1,i,2,3,20,-23,-2,
COCCNC(=O)c1c(CS(=O)(=O)c2ccccc2)noc1C(=O)NCc1ccccc1,-2,.,i,-1,-2,-8,-10,.,
COc1ccc2c(c1)C=C(CN1CCC(CO)(CCc3ccccc3)CC1)CO2,2,-8,i,-4,-1,10,-7,16,
CCC(C)NC(=O)CSc1ccc(Cl)cc1 (stereo unspecified),-15,-8,i,-1,2,8,-4,7,
CN(CC1CCCN(CCc2ccccc2F)C1)C(=O)c1cc2ccccc2o1 (stereo unspecified),.,.,.,3,1,18,-18,.,
O=C(NCCCc1ccccc1)[C@@H]1Cc2ccccc2CN1,-15,0,i,1,1,-1,-16,-4,
CCOC(=O)C1=CCN(S(=O)(=O)c2ccc(F)cc2)C1c1ccc(C)cc1 (stereo unspecified),.,.,.,3,3,20,6,.,
Nc1ccc(C(=O)OCc2nc3c(ccc4ccccc43)[nH]2)cc1,12,-4,i,5,-10,.,-21,-8,
COc1cc(CN2CCCC(C(=O)Nc3ccccc3Oc3cccnc3)C2)ccc1F (stereo unspecified),.,-8,i,-8,-4,13,-15,-2,
O=C(Nc1nnc(-c2ccccc2F)s1)c1ccccc1F,2,4,i,-2,-2,-41,.,-6,
Cc1csc(NC(=O)CSc2ccc3nnc(-c4ccncc4)n3n2)n1,15,33,i,-4,-2,8,.,2,
CCOC(=O)CC(NS(=O)(=O)Cc1ccccc1)c1ccc(C)cc1 (stereo unspecified),-7,2,i,0,-1,4,-8,-2,
COC(=O)c1c(C)cc(C)c2c1CC(C)(C)C2=O,7,-5,i,1,3,-66,.,-7,
Cn1c(CSCc2ccc(Cl)c(Cl)c2)n[nH]c1=S,6,-1,i,-6,-3,-92,-19,4,

# Looked up one by one from the entries so far (6):
SMILES,CSC inhib,PABP polyA inh,Rce1 inh,MT1-MMP act inh,MT1-MMP act inh RFP,Env fusion inh,Yeast UUG start,eIF4H FP inh,others
COC(=O)c1c(C)cc(C)c2c1CC(C)(C)C2=O,7,-5,i,1,3,-66,.,-7,
Nc1ccc(C(=O)OCc2nc3c(ccc4ccccc43)[nH]2)cc1,12,-4,i,5,-10,.,-21,-8,
COc1cc(CN2CCCC(C(=O)Nc3ccccc3Oc3cccnc3)C2)ccc1F (stereo unspecified),.,-8,i,-8,-4,13,-15,-2,
CCOC(=O)C1=CCN(S(=O)(=O)c2ccc(F)cc2)C1c1ccc(C)cc1 (stereo unspecified),.,.,.,3,3,20,6,.,
Cc1csc(NC(=O)CSc2ccc3nnc(-c4ccncc4)n3n2)n1,15,33,i,-4,-2,8,.,2,
O=C(NCCCc1ccccc1)[C@@H]1Cc2ccccc2CN1,-15,0,i,1,1,-1,-16,-4,

# Later entries.
SMILES,CSC inhib,PABP polyA inh,Rce1 inh,MT1-MMP act inh,MT1-MMP act inh RFP,Env fusion inh,Yeast UUG start,eIF4H FP inh,others
COC(=O)Nc1ccc(S(=O)(=O)N2CCCc3cccc(O)c32)cc1,49,-3,i,-6,-12,-56,.,-4,
COc1nc(C)nc(C)c1Oc1ccc(Cl)cc1Cl,-6,0,i,-2,2,8,3,14,
CCOC(=O)Cn1c(=NC(=O)CSC(C)=O)sc2ccccc21,-5,5,i,-2,2,51,-7,-2,
CN1CCC(NC(=O)c2ccncc2)CC1,-39,-12,i,-2,1,8,11,65,eIF4H FP inh retest=-18;PABP polyA inh retest=-4
